gsp antagonist – antagonists of gsp mutant (McCune-Albright syndrome); gsp-mutant cells, cAMP HTRF, 30 min; control for the full effect not named in the record; Potency, µM (series often up to 76.9 µM), for inactives: at the top dose activity change, negative = inhibition, usual class: inhibitors; actives 0.4% (n = 340,000); AID 624288; active = falling curve of any shape with a large fitted effect; inconclusive = falling curve, mostly with a smaller effect; inactive = flat or rising curve; cell line not stated here;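 also: intracellular cAMP measured with PDE inhibitor Ro 20-1724 present during compound exposure; potency is read from the fitted curve at half-maximal effect; % is scaled to controls: 0 for no effect and ±100 for the full control effect; nearly all actives have a fitted effect of over 65% in size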
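Measurement of cellular cAMP by homogeneous time-resolved fluorescence following a 30 min compound exposure at 37C. The PDE inhibitor […] was present throughout; the assay buffer was DPBS with 0.05% BSA and 0.005% Tween 20.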
ClpP mod – qHTS Assay for Activators of ClpP; purified B. subtilis ClpP, FRET peptide cleavage, 20 min; Potency, µM (titrated, usually from 57.5 µM), inactives show top-dose activity change, negative = active; actives 1.9% (n = 340,000); AID 651965, 2013; ATP-dependent Clp protease proteolytic subunit (Bacillus subtilis (strain 168)), P80244; active = well fitted falling curve with a large enough effect; inconclusive = small, poorly fitted or top-dose-only effect; inactive = no such curve, though single readings can be large or run the other way; also: potency is read from the fitted curve at half-maximal effect; the source files actives as falling curves though it sought activators and does not explain the sign; nearly all actives have a fitted effect of over 65% in size; many hits overshoot -100%
Target sequence (P80244 whole entry, looked up): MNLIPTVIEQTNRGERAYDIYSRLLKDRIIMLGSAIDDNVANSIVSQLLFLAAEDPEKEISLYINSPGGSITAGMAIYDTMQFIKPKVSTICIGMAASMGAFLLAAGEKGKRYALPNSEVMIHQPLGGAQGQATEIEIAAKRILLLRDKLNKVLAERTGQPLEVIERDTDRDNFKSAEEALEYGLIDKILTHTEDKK
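Purified B. subtilis ClpP, 10 microg/mL final in Tris/HCl pH8 with KCl, BSA, glycerol and Tween-20, cleaved an Abz/nitrotyrosine-quenched decapeptide. Fluorescence (ex 320, em 430) was read at 0 and 20 min at room temperature. Delta was normalized to 5.8 microM ADEP and DMSO/no-enzyme controls.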
TRPML1 blocker – blocks the human TRPML1 channel. Q9GZU1. TRPML1-inducible cells, Ca2+ dye fluorescence, FDSS; active compounds read low; inhibition of EC80 agonist-evoked calcium signal. activity change, negative = inhibition, % (test concentration not listed). actives 0.02% (n = 390,000); in the data active means activity change below about -50%; inconclusive means about -30% to -50%; inactive means above about -30%;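 also: stimulus is agonist 54-4 at its EC80 concentration; % is scaled to controls: 0 for no effect and ±100 for the full control effect; compound concentration not given in the record; the text of the record puts the active cut at -80%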
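TRPML1-DL cells, Tet-induced overnight (~16 h, 37 °C) at 1,500 cells/well, were loaded with Ca8 no-wash dye plus quencher for 45-90 min at room temperature. Compounds were pinned during FDSS kinetic reading; agonist 54-4 at EC80 (4 uM final) then added.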
gsp agonist – gsp mutant agonism; Potency, µM (series often up to 76.9 µM), for the others: at the top dose activation (cAMP increase), hits mostly activators; gsp mutant cells, cAMP HTRF, 30 min; control for the full effect not named in the record; actives 0.13% (n = 340,000); active = well fitted activation curve with a large enough effect; inconclusive = small, poorly fitted or top-dose-only effect, or another doubt; inactive = no such curve, though single readings can be large or run the other way; cell line not stated here;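 also: phosphodiesterase inhibitor Ro 20-1724 added with compounds to block cAMP breakdown; potency is read from the fitted curve at half-maximal effect; nearly all actives have a fitted effect of over 60% in size; about a fifth of the inactives were tested at one dose only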
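Cells in DMEM/10% FBS with G418 were pretreated with compounds in DMSO plus […] (300 uM stock) for 30 min at 37C. cAMP was measured by HTRF (cAMP-d2 plus anti-cAMP antibody-K) after 30 min at room temperature.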
Sfp inh – Sfp phosphopantetheinyl transferase inhibition. Q9F4F7. Biochemical Sfp PPTase activity, qHTS. Potency, µM, without a hit: max response, negative = inhibition, most hits filed as inhibitors. actives 3.5% (n = 310,000); active = well fitted inhibition curve with a large enough effect; inconclusive = small, poorly fitted or top-dose-only effect, or another doubt; inactive = no such curve, though single readings can be large or run the other way;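 also: the enzyme is Sfp with the accession as filed and its product quenches rhodamine fluorescence; potency is read from the fitted curve at half-maximal effect; 0% = enzyme reaction without inhibitor and -100% = no enzyme wells; top concentration of the series not given in the record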
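Fluorescence-quenching assay with 15 nM Sfp, 5 uM rhodamine-CoA and 12.5 uM BHQ-2-labelled ybbR peptide in pH 7.6 Hepes/MgCl2 buffer. Enzyme was pre-incubated with compound for 15 min at room temperature. Rate was taken from the 30-min fluorescence change (525/598 nm).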
Menin-MLL FL inh – inhibitors of human menin-MLL interaction, wild-type MLL peptide; Fluorescence polarization, fluorescein-MLL peptide displacement from menin; FP activity change, % at 61.4 µM; 290,000 tested, under 10 active; AID 1766; inconclusive = falling polarisation curve, or a change in total fluorescence; inactive = total fluorescence flat and polarisation flat or rising; no compound was filed as active; the % refers to the polarisation; negative = inhibition;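 also: % of control where 0% means no effect; inhibitors lower the polarisation; unlabelled MLL peptide was the positive control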
TRPV1 PAM – enhances activation of the human vanilloid receptor TRPV1; Q8NER1; TRPV1-expressing cells, Fluo-8 calcium influx, capsaicin EC20 potentiation; host cell line not named in the record; control for the full effect not named in the record; potentiation, % at 8.33 µM; actives 0.02% (n = 320,000); active means potentiation above 80%; inconclusive means 30% to 80%; inactive means below 30%; also: 0% is about no effect
Target sequence (Q8NER1 whole entry, looked up): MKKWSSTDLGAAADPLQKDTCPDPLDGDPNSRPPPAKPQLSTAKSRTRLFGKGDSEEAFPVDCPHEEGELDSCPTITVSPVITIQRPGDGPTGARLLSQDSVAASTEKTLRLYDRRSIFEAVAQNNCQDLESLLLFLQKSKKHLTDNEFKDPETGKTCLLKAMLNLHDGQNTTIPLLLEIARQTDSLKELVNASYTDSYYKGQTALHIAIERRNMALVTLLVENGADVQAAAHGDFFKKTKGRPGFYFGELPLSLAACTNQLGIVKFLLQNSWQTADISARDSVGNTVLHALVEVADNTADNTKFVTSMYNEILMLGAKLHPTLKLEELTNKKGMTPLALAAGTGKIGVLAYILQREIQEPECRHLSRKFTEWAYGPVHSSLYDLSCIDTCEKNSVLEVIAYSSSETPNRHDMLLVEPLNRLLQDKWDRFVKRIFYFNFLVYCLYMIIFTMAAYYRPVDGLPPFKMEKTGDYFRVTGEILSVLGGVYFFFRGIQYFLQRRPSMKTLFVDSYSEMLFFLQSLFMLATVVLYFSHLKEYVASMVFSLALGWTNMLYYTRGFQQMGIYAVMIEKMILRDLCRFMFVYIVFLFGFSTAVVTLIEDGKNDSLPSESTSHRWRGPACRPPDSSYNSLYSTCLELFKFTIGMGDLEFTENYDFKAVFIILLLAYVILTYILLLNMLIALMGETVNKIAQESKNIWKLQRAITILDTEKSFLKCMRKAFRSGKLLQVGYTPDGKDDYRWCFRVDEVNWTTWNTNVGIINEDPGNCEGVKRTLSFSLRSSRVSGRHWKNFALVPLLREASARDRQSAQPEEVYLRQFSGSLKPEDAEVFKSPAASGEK
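Cells expressing TRPV1 were dye-loaded with Fluo-8 and read kinetically: 10 s baseline, 3 min after compound (agonist portion), then 2 min after EC20 capsaicin (allosteric enhancer portion). Calcium-bound dye fluorescence at 480/520 nm.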
Numbers without * were called inactive; ? = inconclusive; / = not tested or not shown; & = joins results of further samples; [ ] = another dose, or the depositor's remark.

Each structure is followed by: gsp antagonist	ClpP mod	TRPML1 blocker	gsp agonist	Sfp inh	Menin-MLL FL inh	TRPV1 PAM
CC(C)(C)NC(=O)COC(=O)c1ccc(Cl)nc1
    2%	/	19	-10%	14%	0.5	0
O=C(c1ccoc1)N1CCN(c2cc(-c3ccco3)nc3cc(-c4ccccc4)nn23)CC1
    /	4.3%	16	5%	/	/	/
CN(C(=O)c1ccccc1)c1ccccc1C(=O)NCCc1ccccc1
    -9%	-0.9%	-20	27%	11%	2.5	5
O=C(Cc1ccc(F)cc1)N1CCC2(CC1)NCCc1[nH]cnc12
    -1%	-2.0%	12	?	5%	/	0
Cc1ccccc1NC(=O)Cn1c(O)c(N=NC(=O)c2ccccc2O)c2ccccc21
    2%	-3.7%	-11	-10%	-29%	0.0	6
COc1ccccc1N1CCN(S(=O)(=O)c2ccc(-n3cnnn3)c(C)c2)CC1
    1%	-0.3%	-3	12%	4%	4.8	-14
COc1cc(CN2CCC(Cc3ccccc3)CC2)c([N+](=O)[O-])cc1OC
    8%	0.6%	5	7%[15.4 µM]	-21%	-3.5	?
CCOc1cccc(C2C(C(=O)c3ccco3)=C(O)C(=O)N2c2nnc(C)s2)c1 (centres undefined)
    -10%	-0.1%	9	19%	/	/	-14
COc1ccc(-c2cc(C(=O)N/N=C(\C)c3cccnc3)c3cc(C)ccc3n2)cc1OC
    -6%	-5.9%	10	0%	14%	/	0
Cc1ccc(Cl)cc1NC(=S)Nn1cnnc1
    5%	-2.1%	0	-29%	11%	/	-10

The last 2 records of the section before are carried over, then new ones follow:
Each structure is followed by: gsp antagonist	ClpP mod	TRPML1 blocker	gsp agonist	Sfp inh	Menin-MLL FL inh	TRPV1 PAM
COc1ccc(-c2cc(C(=O)N/N=C(\C)c3cccnc3)c3cc(C)ccc3n2)cc1OC
    -6%	-5.9%	10	0%	14%	/	0
Cc1ccc(Cl)cc1NC(=S)Nn1cnnc1
    5%	-2.1%	0	-29%	11%	/	-10
Nc1c(N(CCC2=CCCCC2)C(=O)c2ccc([N+](=O)[O-])o2)c(=O)[nH]c(=O)n1Cc1ccccc1
    -5%	-2.5%	5	-7%[15.4 µM]	/	/	24
CCCS/C(N)=N/N=C/c1cc(C)ccc1O
    5%	-8.6%	13	10%	18%	2.5	3
COc1ccc(N2CCN(C3CCCN(Cc4ccc(F)c(F)c4)C3)CC2)cc1 (centres undefined)
    6%	-2.9%	-2	1%	9%	-0.1	7
CC(C)(C)C(=O)Nc1ccnn1C1CCN(C(=O)c2ccc(Cl)cc2F)CC1
    3%	-3.8%	-22	-48%[inhibitor]	16%	/	-4
CCOC(=O)c1oc2cc(C)cc(O)c2c(=O)c1-c1csc(C)n1
    10%	-0.7%	-6	2%	-2%	-1.4	-2
O=C1C=CC(=Nc2ccc3c(c2)Cc2cc(F)ccc2-3)O1
    9%	-11%	-8	-12%	/	/	/
Cc1ccc(S(=O)(=O)/N=C(\CN2CCCCC2)N2CCOCC2)cc1
    -1%	-1.7%	-20	-2%	16%	0.3	1
CCC1=C(OC(=O)N(CC)CC)N2C(=O)OC(=NCC(=O)OC)[C@]2(C)[C@H]2C1=CC[C@H]1C(=O)N(CC)C(=O)[C@H]12
    -1%	0.4%	-10	/	21%&24%	-3.2&0.3	-23
Clc1c(CSc2nc3ccccc3o2)nc2ccccn12
    -12%	0.1%	29	-19%	-1%	4.9	0
CCOc1ccc2[nH]c3c(N4CCc5ccccc5C4)ncnc3c2c1
    -38%	/	-13	-9%[15.4 µM]	-2%	5.0	/

Further entries follow.
Each structure is followed by: gsp antagonist	ClpP mod	TRPML1 blocker	gsp agonist	Sfp inh	Menin-MLL FL inh	TRPV1 PAM
O=C(Nc1ccc(F)cc1F)c1cncc(Br)c1
    7%	/	11	-78%[inhibitor]	8%	3.9	?
O=c1c2ccccc2oc2ncccc12
    5%	-20%	-15	?	4%	6.2	-3
O=C(COc1ccc(C(=S)N2CCOCC2)cc1)N1CCOCC1
    6%	1.6%	1	-56%[inhibitor]	1%	-6.1	-11
CC(C)c1ccc(OCc2cccc(C(=O)N/N=C/c3cccnc3)c2)cc1
    -17%	0.6%	-6	-8%[15.4 µM]	-13%	4.4	-1
CC(=O)Oc1ccc(C(=O)N2c3ccccc3NC(=O)C2C)cc1 (centres undefined)
    -14%	-1.9%	?	-1%	19%	3.6	-1
O=C(Nc1ccc(F)cc1)c1ccc2nsnc2c1
    -5%	-1.3%	/	25%	11%	-5.0	0
COc1cccc2cc(C(=O)OCC(=O)NCc3ccc4c(c3)OCO4)c(=O)oc12
    -16%	2.6%	-25	-39%[inhibitor]	5%	-0.9	0
Clc1ccc(/C=N/NC2=Nc3cccc4cccc2c34)cc1
    8%	1.1%	7	5%	6%	?	4
CCc1ccccc1N1C(=O)C2C3C=CC(CC3)C2C1=O (centres undefined)
    -6%	0.4%	-2	18%	2%	-2.8	1
CCN(CC)CCNC(=O)C(=O)NCC1OCCN1S(=O)(=O)c1cccs1 (centres undefined)
    12%	3.8%	-3	-45%[inhibitor]	/	/	/

Later entries:
Each structure is followed by: gsp antagonist	ClpP mod	TRPML1 blocker	gsp agonist	Sfp inh	Menin-MLL FL inh	TRPV1 PAM
Cc1cc2cc(CN(CC3CCCO3)C(=S)NCc3ccco3)c(=O)[nH]c2cc1C (centres undefined)
    -24%	-28%	-5	-5%	-7%	2.6	17
CCN(CC)CCOC(=O)c1cccc(OC)c1
    -1%	-7.6%	22	7%	-10%	13	25
O=c1[nH]c(=O)n(C2CCCO2)cc1Br (centres undefined)
    -3%	-1.1%	-4	?	11%	-0.3	-2
CCOc1ccccc1C1CC(=O)NC2=C1C(=O)CC(C)(C)C2 (centres undefined)
    0%	-0.5%	-10	-3%	14%	0.9	0
COc1ccc(N2CCN(C(=O)c3cc(C)oc3C)CC2)cc1
    -5%	-1.7%	2	-4%	6%	/	-35
COc1ccc(/C=C/C(=O)c2ccc(Cl)cc2)c(OC)c1
    2%	-23%	11	-22%	-16%	4.9	11
COc1ccc([N+](=O)[O-])cc1N(CC(=O)O)S(C)(=O)=O
    12%	/	1	-5%	-12%	1.8	-3
Cc1ccc(/C=C/C(=O)O)cc1S(=O)(=O)NCCCO
    4%	-1.7%	0	4%	8%	6.6	-6
Fc1cccc(NC(=S)NCc2ccccc2Cl)c1
    -16%	1.1%	13	-6%[15.4 µM]	4%	11	/
CCOc1ccc(N2C(=O)CC(Cc3cc(C)cc(C)c3)C2=O)cc1 (centres undefined)
    -7%	-0.1%	/	0%	-13%	-4.6	5

(cont.)
Each structure is followed by: gsp antagonist	ClpP mod	TRPML1 blocker	gsp agonist	Sfp inh	Menin-MLL FL inh	TRPV1 PAM
N#CCCN(C(=O)COC(=O)CNC(=O)C12CC3CC(CC(C3)C1)C2)c1ccccc1
    6%	-1.1%	2	-8%	/	/	1
COc1ccc(-n2cc(CN3CCC(OC)CC3)c(-c3cccc(F)c3)n2)cc1
    11%	-16%	?	29%	-24%	1.4	-8
CCOc1ccc(NC(=O)COc2ccc(C(=O)N3CCC(C(N)=O)CC3)cc2OC)cc1
    12%	-1.9%	-14	?	/	/	8
CCOC(=O)c1c(S(=O)(=O)N(C)C2CCCCC2)c(C)n(C)c1C
    -3%	-0.4%	3	-63%[inhibitor]	11%	2.2	7
Cc1cc(C)cc(N(CCC#N)C(=O)CN2C(=O)NC3(CCCC3)C2=O)c1
    22%	/	-21	-17%[15.4 µM]	8%	3.3	21
Cc1ccc(C(=O)CNc2cccc(Cl)c2)cc1
    10%	-1.5%	6	-13%	2%	1.3	-13
C/C(=C/C(=O)N1CCc2ccccc21)C(=O)O
    8%	1.1%	22	3%	-1%	-1.5	2
CC(C)C(=O)Nc1ccc(NC(=O)c2ccc3c(c2)OCO3)cc1
    11%	-0.6%	-7	?	16%	2.9	-9
CC(=O)Nc1ccccc1C(=O)C(=O)Nc1ccccc1
    6%	0.9%	-17	-47%[inhibitor]	29%	-1.0	-2
Cc1cc(Oc2ccccc2)nc(SCC(=O)Nc2ccc(Cl)cc2Cl)n1
    ?	-3.2%	68	-7%	-16%	-0.6	9

Further records follow.
Each structure is followed by: gsp antagonist	ClpP mod	TRPML1 blocker	gsp agonist	Sfp inh	Menin-MLL FL inh	TRPV1 PAM
Cc1cccc(N(Cc2ccccc2)C(=O)c2ccccc2S(C)(=O)=O)c1
    -3%	-0.7%	-2	?	-2%	/	9
CC(=O)Nc1cccc(NC(=O)C2CCCN2C(=O)Nc2cccc(F)c2)c1 (centres undefined)
    1%	-4.6%	-7	5%	5%	1.5	-10
COC(=O)c1ccccc1NC(=O)c1onc(C)c1Cl
    11%	?	-19	21%	8%	6.1	-14
CN1CCN(CC(O)COc2ccc(S(=O)(=O)N3CCOCC3)cc2)CC1 (centres undefined)
    10%	-0.9%	16	-118%[inhibitor]	/	/	3
COc1cc(NC(=O)Cc2cccs2)c(C(=O)O)cc1OC
    6%	/	30	0%	11%	7.8	0
COc1ccc(Br)cc1C(=O)NC(=S)Nc1c(C)n(C)n(-c2ccccc2)c1=O
    -3%	-0.1%	30	1%[15.4 µM]	10%	0.7	?
Cc1cc(C)n2c(nc3ccccc32)c1C(=O)NN
    -6%	/	21	?	11%	-0.7	/
Cc1ccc(C(=O)C2CC2)cc1C
    10%	-0.4%	25	2%[15.4 µM]	/	/	/
O=C(c1cccc(-n2cccc2)c1)N1CCN(S(=O)(=O)c2ccccc2Br)CC1
    -5%	/	-5	-7%[15.4 µM]	/	/	11

Screening results as filed in PubChem.
